Rce1 inh: inhibitors of yeast Ras-converting enzyme. Q03530. yeast membranes, quenched prenylated peptide cleavage fluorescence. calls only. actives 0.27% (n = 290,000). AID 2563;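 active means fall in fluorescence gain of 50% or more versus controls, with final raw signal at or below 3038400; inconclusive means same 50% fall but final raw signal above 3038400; inactive means fall in fluorescence gain under 50%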;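 further: plate controls were neutral control wells for no effect and wells lacking membranes for full effect; tested at 10 µM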
Yeast UUG start: modulators of start codon recognition fidelity in yeast; S. cerevisiae UUG-firefly luciferase reporter, luminescence/redox ratio; activity score, % at 18.7 µM; actives 0.13% (n = 350,000); AID 602363;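 active means replicate mean at a twofold rise or more, about +100% in these data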;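 further: firefly luciferase made from a UUG start codon reports start codon fidelity; reporter light over untreated wells divided by growth signal over untreated wells; some hits fall short of that in this replicate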
PABP FP inh: PABP-poly(A) binding inhibition. inhibition, % at 35 µM. AID 2014. actives 1% (n = 290,000). P11940. PABP-poly(A) RNA binding, fluorescence polarization;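 active means 50% or more with normal probe brightness, or confirmed in later tests; inconclusive means above 50% with abnormal brightness, or retests that disagree; inactive means below 50% or failed in later tests; about a fifth of its hits are not listed in these tables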;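 further: calls also rest on retests at 20 µM and on dose response follow-up; controls were probe without protein and protein plus probe with vehicle; some compounds called inactive have numbers as strong as hits; many hits fall short of the cut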
Target sequence (P11940 whole entry, looked up): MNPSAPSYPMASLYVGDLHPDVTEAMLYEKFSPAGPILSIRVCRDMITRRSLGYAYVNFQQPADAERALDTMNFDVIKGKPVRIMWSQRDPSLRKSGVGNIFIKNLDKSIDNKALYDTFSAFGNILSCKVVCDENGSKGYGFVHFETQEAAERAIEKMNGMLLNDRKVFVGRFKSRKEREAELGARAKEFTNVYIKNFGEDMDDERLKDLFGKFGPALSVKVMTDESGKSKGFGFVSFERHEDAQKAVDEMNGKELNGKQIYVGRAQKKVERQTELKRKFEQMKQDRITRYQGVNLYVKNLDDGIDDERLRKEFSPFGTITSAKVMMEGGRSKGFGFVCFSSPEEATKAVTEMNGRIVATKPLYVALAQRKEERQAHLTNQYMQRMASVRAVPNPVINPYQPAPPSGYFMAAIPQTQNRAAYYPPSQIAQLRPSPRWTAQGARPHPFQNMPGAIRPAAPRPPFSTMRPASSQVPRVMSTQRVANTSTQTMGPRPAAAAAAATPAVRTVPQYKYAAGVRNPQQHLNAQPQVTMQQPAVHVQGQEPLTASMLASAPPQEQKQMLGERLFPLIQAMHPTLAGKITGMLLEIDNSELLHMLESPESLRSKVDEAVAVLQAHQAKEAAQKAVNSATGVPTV
eIF4H FP inh: inhibitors of RNA binding by human eIF4H; eIF4H fluorescence polarization binding assay; inhibition, % at 35 µM; actives 0.94% (n = 290,000); AID 2012;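 active means 50% or more with normal probe brightness, or confirmed in later tests; inconclusive means above 50% with abnormal brightness, or retests that disagree; inactive means below 50% or failed in later tests; about a fifth of its hits are not listed in these tables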;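 further: calls also rest on retests at 20 µM and on dose response follow-up; 0% = protein and probe with vehicle and 100% = probe without protein; strong numbers were not always called active; many hits fall short of the cut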
MT1-MMP act inh: blocks activation of human MT1-MMP | AID 651647 | actives 0.061% (n = 360,000) | GFP/RFP ratio change, % at 20 µM | P50281 | HT1080 RFP-PRO-GFP cells, GFP/RFP ratio fluorescence, overnight; percent of plate control window, DMSO zero;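 active means GFP/RFP ratio change of at least 30% with cell ATP level not reduced by more than half and red fluorescence within 50% of control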; further: strong numbers were not always called active
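Assay system – RFP-PRO-GFP reporter HT1080 cells · Compound dosing – single dose of 20 µM compound, 1% DMSO final · Incubation – overnight compound exposure at 37 °C · Measure – GFP/RFP fluorescence ratio · Benchmarks – DMSO wells and RFP-L50D-GFP cells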
CSC inhib: cancer stem cell inhibition | cancer stem cell-like cells viability, luminescence | inhibition, % at 7.5 µM | actives 1.1% (n = 300,000);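 active means mean at 75% or more and at least half the replicates too; inconclusive means mean and replicates disagree; tested in HMLE shEcad cells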;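 further: 0% = median of negative and 100% = median of positive control wells; the first replicate is given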
HIV Env fusion: HIV envelope-mediated fusion inhibition; HeLa-JRFL Env/CEM21 cell fusion, luciferase; inhibition, % at 12.3 µM; actives 1.1% (n = 360,000);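 active means mean replicate inhibition score of at least 50 and every replicate individually at or above 50; inconclusive means only one of the two criteria met; inactive means mean below 50 and not all replicates reaching 50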;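 further: 0% = plate neutral controls and 100% = maraviroc near 300 nM; one replicate is shown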
MT1-MMP act inh RFP: further read-out of MT1-MMP act inh, marked with its call; RFP signal change, %; measured here: RFP expression control read;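 0 = vehicle wells; hits needed this value within 50% of zero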
* hit, by the source's call; i = inactive; u = inconclusive; x = no result given. Only part of the results is shown; count on the stated rates, not on these rows.

The line under a structure holds: Rce1 inh, Yeast UUG start, PABP FP inh, eIF4H FP inh, MT1-MMP act inh, MT1-MMP act inh RFP, CSC inhib, HIV Env fusion
1. O=c1[nH]cnc2c1N1CCC2CC1
  i, -1, -3, -1, 4, 7, 9, x
2. Cc1c(Cl)c([N+](=O)[O-])nn1CC(=O)Nc1ccc2c(c1)OCO2
  i, x, 8, 4, 2, 0, -14, 9
3. CS(=O)(=O)c1cccc(C(=O)Nc2cccc(S(=O)(=O)N3CCCC3)c2)c1
  x, 3, x, x, -3, -4, x, 6
4. COc1cc(CC(=O)NCc2ccco2)cc(OC)c1OC
  i, -6, -4, 1, 4, 4, x, -8
5. CCCc1cnc(NCCNCC(O)COc2ccc(Cl)c(Cl)c2)nc1 (stereo not drawn)
  i, -18, -2, -3, 1, 2, 10, 6
6. O=C(NC(=S)Nc1cccc(Cl)c1)c1cncc(Br)c1
  i, -7, x, x, 0, 1, -15, -8
7. CCCCn1ccc(O)c(Cc2ccc(F)cc2)c1=O
  i, -7, -2, 2, 0, -4, 2, x
8. COc1ccc(Oc2cc(F)nc(N)n2)cc1
  i, -19, -2, -10, -1, 0, 1, x
9. O=C(/C=C/c1ccc(F)cc1)NCCCn1ccnc1
  i, -14, -6, -11, 4, -3, -16, -7
10. O=C(CSc1nc2cc(Cl)ccc2s1)NCc1ccc2c(c1)OCO2
  i, -14, 6, -7, 3, -1, 19, -1
11. COC(=O)C(c1cc(OC)c(O)c(OC)c1)(N1CCNC(C)C1)C(F)(F)F (stereo not drawn)
  i, 1, 0, 3, -4, -2, -15, -34
12. Cc1nnc(SCC(=O)Nc2nsc(-c3ccccc3)n2)s1
  i, -3, -7, -1, -10, -2, x, 57*
13. CC(C)(C)c1ccc(N=C2SCC(=O)N2Cc2cccs2)cc1
  x, x, -7, -5, 0, -1, 60, 5
14. CCn1nc(C)c(/C=N/NC(=O)Cn2nnnc2N)c1C
  i, -15, 8, 0, 9, 9, 4, 3
15. C=C(c1ccccc1C)[n+]1ccccc1
  i, 3, -1, 0, -1, -4, -12, -1

The final 2 entries of the part before lead into the next.
The line under a structure holds: Rce1 inh, Yeast UUG start, PABP FP inh, eIF4H FP inh, MT1-MMP act inh, MT1-MMP act inh RFP, CSC inhib, HIV Env fusion
14. CCn1nc(C)c(/C=N/NC(=O)Cn2nnnc2N)c1C
  i, -15, 8, 0, 9, 9, 4, 3
15. C=C(c1ccccc1C)[n+]1ccccc1
  i, 3, -1, 0, -1, -4, -12, -1
16. COc1ccc(C(=O)NC(C(=O)N2CCc3ccccc32)C(C)C)cc1 (stereo not drawn)
  i, -12, 0, -8, 2, 5, -9, 4
17. O=C(Nc1ccc(Cl)cc1)c1cc2nc(-c3ccco3)cc(C(F)(F)F)n2n1
  i, -23, -6, -9, -3, 0, 6, x
18. NC(=O)CSc1nc2scc(-c3ccc(Cl)cc3)c2c(=O)n1Cc1ccccc1
  i, 4, -10, -17, -4, -6, 3, -25
19. COc1ccc(N(CC(=O)O)S(C)(=O)=O)cc1OC
  i, 6, 3, -1, 11, 13, 1, u
20. CCOc1ccc(-c2cccc(NC(=O)COc3ccccc3)c2)nn1
  i, -6, -2, -6, 1, 3, 4, x
21. O=[N+]([O-])c1ccc(Sc2nccn2Cc2ccccc2)c([N+](=O)[O-])c1
  i, x, 0, 0, -3, -6, 46, x
22. COc1ccc(CCCCCCOCc2ccccc2)cc1
  x, 14, x, x, 7, 1, -1, -27
23. CCc1ccc(C(=O)CN(C#N)c2nc(C)cc(C)n2)cc1
  i, -8, 2, 7, 0, -1, 2, -49
24. Cc1ccn2c(NCc3ccc4c(c3)OCO4)c(-c3ccc(O)cc3)nc2c1
  i, -19, 4, -17, 6, 0, 4, x
25. CC1CC(C)CN(C(=O)COC(=O)c2ccc([N+](=O)[O-])o2)C1 (stereo not drawn)
  x, -12, x, x, 4, 4, 1, x
26. CC(=O)c1c(OC(=O)c2ccco2)c2ccccc2n1C
  i, -19, 1, 1, 2, 7, -1, x
27. Cc1cccc(C)c1OCC(=O)NCc1nnc(SCC(=O)NC2CCCCC2)n1C
  i, -11, 6, 8, 4, 7, -8, -23
28. COc1ccccc1C(CNC(=O)c1ccc(NS(=O)(=O)c2ccc(F)c(C)c2)cc1)N(C)C (stereo not drawn)
  i, -29, 4, -4, -6, 1, x, -13
29. NNC(=O)Cc1csc(-c2ccccc2)n1
  i, x, -3, 4, -1, -2, 3, -17
30. O=C(O)CNC(=O)CC12CC3CC(CC(C3)C1)C2
  i, -3, 0, -7, -6, -1, 6, x

(listing goes on)
The line under a structure holds: Rce1 inh, Yeast UUG start, PABP FP inh, eIF4H FP inh, MT1-MMP act inh, MT1-MMP act inh RFP, CSC inhib, HIV Env fusion
31. Cc1ccc(S(=O)(=O)NCC(=O)N2CCCCC2)cc1
  i, -28, 7, 5, -1, 1, 6, -9
32. Cc1nc(-c2ccccc2)sc1C1(C)CC(c2cccc(F)c2)=NO1 (stereo not drawn)
  i, -16, x, x, 11, 0, -9, 21
33. COc1ccc(CC(=O)Nc2ccc(S(=O)(=O)N3CCCCC3)cc2)cc1OC
  i, 2, -8, -6, x, x, 10, 0
34. Cc1[nH]n(-c2ccccc2)c(=O)c1C(c1cccc([N+](=O)[O-])c1)c1c(C)[nH]n(-c2ccccc2)c1=O
  i, x, -12, -3, 18, -4, -1, x
35. COc1ccccc1NC(=S)N1CCCCCC1
  i, -11, -5, 2, -2, 3, 2, x
36. COC(=O)CN1C(=O)C(C)(C)Oc2ccc(C(=O)Nc3ccccc3F)cc21
  i, 16, -1, -2, 0, -2, -2, 11
37. CCCOc1cccc(C2/C(=C(/O)c3ccc(OC)cc3)C(=O)C(=O)N2CCN(C)C)c1 (stereo not drawn)
  i, -38, -10, 1, 1, 0, 5, x
38. COc1ccc2c(c1)OC[C@H]1[C@H]2N2C(=O)CN(CC3CCCO3)C(=O)[C@@]2(C)[C@H]1c1ccccc1 (stereo partly drawn)
  x, -2, x, x, -4, 0, -1, 31
39. Cc1ccc(-c2csc(N3C(=N)SCC3=O)n2)cc1
  i, x, -2, -8, x, x, -5, -53
40. O=C(O)/C=C\c1cc2c(cc1[N+](=O)[O-])OCO2
  i, -8, 11, 20, -2, 0, 7, 3
41. C=CCC[C@@H](Cc1ccc(F)cc1)C(=O)OC[C@@H]1CCCN1C(=O)[C@@H](CC=C)CC(=O)N(CCO)Cc1ccccc1
  x, -3, x, x, -9, -27, 10, -11
42. COC(=O)C1=C(C)NC2=C(C(=O)CC(C)(C)C2)C1c1cnn(C)c1C (stereo not drawn)
  i, x, 0, 7, -3, 5, -3, x
43. Cc1ccc(C)c(NC(=O)Cn2nc(C)c3ccccc3c2=O)c1
  i, -17, -5, 0, 4, 3, -1, -45
44. Cc1nc(SCC(=O)c2ccc(F)cc2)n[nH]1
  i, -16, 1, -5, 6, 0, -7, -34
45. COc1ccc(N=C2S/C(=C\c3cccs3)C(=O)N2CC(C)C)cc1
  i, -21, -1, 2, 0, 3, 1, x

From no. 27 to 45, as listed above:
The line under a structure holds: Rce1 inh, Yeast UUG start, PABP FP inh, eIF4H FP inh, MT1-MMP act inh, MT1-MMP act inh RFP, CSC inhib, HIV Env fusion
27. Cc1cccc(C)c1OCC(=O)NCc1nnc(SCC(=O)NC2CCCCC2)n1C
  i, -11, 6, 8, 4, 7, -8, -23
28. COc1ccccc1C(CNC(=O)c1ccc(NS(=O)(=O)c2ccc(F)c(C)c2)cc1)N(C)C (stereo not drawn)
  i, -29, 4, -4, -6, 1, x, -13
29. NNC(=O)Cc1csc(-c2ccccc2)n1
  i, x, -3, 4, -1, -2, 3, -17
30. O=C(O)CNC(=O)CC12CC3CC(CC(C3)C1)C2
  i, -3, 0, -7, -6, -1, 6, x
31. Cc1ccc(S(=O)(=O)NCC(=O)N2CCCCC2)cc1
  i, -28, 7, 5, -1, 1, 6, -9
32. Cc1nc(-c2ccccc2)sc1C1(C)CC(c2cccc(F)c2)=NO1 (stereo not drawn)
  i, -16, x, x, 11, 0, -9, 21
33. COc1ccc(CC(=O)Nc2ccc(S(=O)(=O)N3CCCCC3)cc2)cc1OC
  i, 2, -8, -6, x, x, 10, 0
34. Cc1[nH]n(-c2ccccc2)c(=O)c1C(c1cccc([N+](=O)[O-])c1)c1c(C)[nH]n(-c2ccccc2)c1=O
  i, x, -12, -3, 18, -4, -1, x
35. COc1ccccc1NC(=S)N1CCCCCC1
  i, -11, -5, 2, -2, 3, 2, x
36. COC(=O)CN1C(=O)C(C)(C)Oc2ccc(C(=O)Nc3ccccc3F)cc21
  i, 16, -1, -2, 0, -2, -2, 11
37. CCCOc1cccc(C2/C(=C(/O)c3ccc(OC)cc3)C(=O)C(=O)N2CCN(C)C)c1 (stereo not drawn)
  i, -38, -10, 1, 1, 0, 5, x
38. COc1ccc2c(c1)OC[C@H]1[C@H]2N2C(=O)CN(CC3CCCO3)C(=O)[C@@]2(C)[C@H]1c1ccccc1 (stereo partly drawn)
  x, -2, x, x, -4, 0, -1, 31
39. Cc1ccc(-c2csc(N3C(=N)SCC3=O)n2)cc1
  i, x, -2, -8, x, x, -5, -53
40. O=C(O)/C=C\c1cc2c(cc1[N+](=O)[O-])OCO2
  i, -8, 11, 20, -2, 0, 7, 3
41. C=CCC[C@@H](Cc1ccc(F)cc1)C(=O)OC[C@@H]1CCCN1C(=O)[C@@H](CC=C)CC(=O)N(CCO)Cc1ccccc1
  x, -3, x, x, -9, -27, 10, -11
42. COC(=O)C1=C(C)NC2=C(C(=O)CC(C)(C)C2)C1c1cnn(C)c1C (stereo not drawn)
  i, x, 0, 7, -3, 5, -3, x
43. Cc1ccc(C)c(NC(=O)Cn2nc(C)c3ccccc3c2=O)c1
  i, -17, -5, 0, 4, 3, -1, -45
44. Cc1nc(SCC(=O)c2ccc(F)cc2)n[nH]1
  i, -16, 1, -5, 6, 0, -7, -34
45. COc1ccc(N=C2S/C(=C\c3cccs3)C(=O)N2CC(C)C)cc1
  i, -21, -1, 2, 0, 3, 1, x

Continuation.
The line under a structure holds: Rce1 inh, Yeast UUG start, PABP FP inh, eIF4H FP inh, MT1-MMP act inh, MT1-MMP act inh RFP, CSC inhib, HIV Env fusion
46. CC(=O)c1sc2c(c1OC(=O)c1ccc(Cl)cc1Cl)c(=O)n(-c1ccccc1)c(=S)n2-c1ccccc1
  i, -23, -9, 15, -27, -17, 67, 48
47. COc1ccc(S(=O)(=O)N(CC(=O)O)c2ccccc2)cc1
  i, -17, -1, 1, -1, 0, 10, x
48. O=C1c2ccccc2C(=O)N1c1cccc2ccccc12
  i, 1, 10, -2, 0, 2, -3, 14
49. O=C(CCCc1nc(-c2ccccc2Cl)no1)NC1CCCCC1
  i, -4, 1, 4, 1, -2, x, x
50. COC(=O)[C@@]1(Cc2ccc(F)cc2)[C@H]2c3cc(C(=O)N4CCCC4)n(CCO)c3C[C@H]2CN1C(=O)c1ccccc1
  x, x, 1, -1, x, x, -15, -36
51. COc1ccc(CNC(=O)CN(C(=O)c2csnn2)c2ccc3c(c2)OCCO3)cc1
  x, -8, -6, -12, 0, 0, -12, 5
52. O=C(Cn1nnc(-c2cccc(C(F)(F)F)c2)n1)N1CCOCC1
  i, -12, 10, -4, 8, 6, x, x
53. CCOC(=O)C1CC(=O)c2ccccc2C1c1ccccc1 (stereo not drawn)
  x, -20, x, x, -2, 7, x, 8
54. CCN(C(=O)CSc1ncn[nH]1)C1CCCCC1
  i, -24, 0, -9, 6, 5, -4, -113
55. COc1cc(C(=O)Nc2ccc3nc4n(c(=O)c3c2)CCCCC4)cc(OC)c1OC
  i, 9, 10, -1, 8, -2, -7, 3
56. C(=C\c1ccccc1)/C=N/N1CCN(Cc2ccccc2)CC1
  i, x, 12, 8, 9, 3, 12, 7

Bioassay records (PubChem)
